MT1-MMP act inh = inhibitors of human MT1-MMP activation | HT1080 RFP-PRO-GFP cells, GFP/RFP ratio fluorescence, overnight; percent of plate control window, DMSO zero | GFP/RFP ratio change, % at 20 µM | 360,000 tested, 0.061% active;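 active = GFP/RFP ratio change of at least 30% with cell ATP level not reduced by more than half and red fluorescence within 50% of control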; also: strong numbers were not always called active
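Material – HT1080 RFP-PRO-GFP cells · Control set – DMSO wells and RFP-L50D-GFP cells · Incubation – overnight cell settling, then overnight compound exposure, 37 °C, 5% CO2 · Compound dosing – single-point 20 µM compound, 1% DMSO · Read-out – GFP/RFP fluorescence ratio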
eIF4H inh = inhibitors of RNA binding by human eIF4H; inhibition, % at 35 µM; 290,000 tested, 0.94% active; eIF4H fluorescence polarization binding assay;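 active = 50% or more with normal probe brightness, or confirmed in later tests; inconclusive = above 50% with abnormal brightness, or retests that disagree; inactive = below 50% or failed in later tests; about a fifth of its hits are not listed in these tables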;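 also: calls also rest on retests at 20 µM and on dose response follow-up; 0% = protein and probe with vehicle and 100% = probe without protein; strong numbers were not always called active; many hits fall short of the cut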
CSC inhib = cancer stem cell inhibition | cancer stem cell-like cells viability, luminescence | inhibition, % at 7.5 µM | 300,000 tested, 1.1% active | AID 2717;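 active = mean at 75% or more and at least half the replicates too; inconclusive = mean and replicates disagree; tested in HMLE shEcad cells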;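 also: 0% = median of negative and 100% = median of positive control wells; the first replicate is given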
Env fusion inh = inhibitors of HIV Env-mediated cell fusion | AID 651610 | HeLa-JRFL Env/CEM21 cell fusion, luciferase | 360,000 tested, 1.1% active | inhibition, % at 12.3 µM;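 active = mean replicate inhibition score of at least 50 and every replicate individually at or above 50; inconclusive = only one of the two criteria met; inactive = mean below 50 and not all replicates reaching 50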;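 also: 0% = plate neutral controls and 100% = maraviroc near 300 nM; one replicate is shown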
Rce1 inhib = blocks yeast Ras-converting enzyme; yeast membranes, quenched prenylated peptide cleavage fluorescence; calls only; 290,000 tested, 0.27% active; AID 2563;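 active = fall in fluorescence gain of 50% or more versus controls, with final raw signal at or below 3038400; inconclusive = same 50% fall but final raw signal above 3038400; inactive = fall in fluorescence gain under 50%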;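 also: plate controls were neutral control wells for no effect and wells lacking membranes for full effect; tested at 10 µM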
Target sequence (Q03530 whole entry, looked up): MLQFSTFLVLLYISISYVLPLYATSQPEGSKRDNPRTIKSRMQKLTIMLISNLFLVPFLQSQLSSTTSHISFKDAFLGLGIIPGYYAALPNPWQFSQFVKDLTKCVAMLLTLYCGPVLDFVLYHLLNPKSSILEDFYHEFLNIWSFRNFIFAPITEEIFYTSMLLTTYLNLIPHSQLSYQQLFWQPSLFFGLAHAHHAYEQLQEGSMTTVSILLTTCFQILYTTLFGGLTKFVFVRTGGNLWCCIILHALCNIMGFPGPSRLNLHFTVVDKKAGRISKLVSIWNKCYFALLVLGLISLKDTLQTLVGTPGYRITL
UUG fidelity = alters start codon recognition fidelity in yeast. S. cerevisiae UUG-firefly luciferase reporter, luminescence/redox ratio. activity score, % at 18.7 µM. 350,000 tested, 0.13% active;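 active = replicate mean at a twofold rise or more, about +100% in these data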;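 also: firefly luciferase made from a UUG start codon reports start codon fidelity; reporter light over untreated wells divided by growth signal over untreated wells; some hits fall short of that in this replicate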
PABP FP inh = blocks human PABP binding to poly(A) RNA; P11940; fluorescence polarization; inhibition, % at 35 µM; 290,000 tested, 1% active; AID 2014;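 active = 50% or more with normal probe brightness, or confirmed in later tests; inconclusive = above 50% with abnormal brightness, or retests that disagree; inactive = below 50% or failed in later tests; about a fifth of its hits are not listed in these tables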;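 also: calls also rest on retests at 20 µM and on dose response follow-up; controls were probe without protein and protein plus probe with vehicle; some compounds called inactive have numbers as strong as hits; many hits fall short of the cut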
eIF4H inh retest = also measured in eIF4H inh; calls as there; inhibition, %; compound at 20 µM; confirmation average;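 mean of two retest wells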
PABP FP inh retest = also measured in PABP FP inh; calls as there; inhibition, %; compound at 20 µM; confirmation repeats;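 mean of two retest wells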
MT1-MMP act inh RFP = also measured in MT1-MMP act inh; calls as there; RFP signal change, %; measured here: RFP expression control read;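 0 = vehicle wells; hits needed this value within 50% of zero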
Active calls of the source: *; i = inactive; ? = inconclusive; . = not tested or not shown; & = joins results of further samples; [ ] = another dose, or the depositor's remark.

SMILES | MT1-MMP act inh | MT1-MMP act inh RFP | eIF4H inh | CSC inhib | Env fusion inh | Rce1 inhib | UUG fidelity | PABP FP inh | others
C=C(C)c1cccc(C(C)(C)NC(=O)NCC2COCCO2)c1 (stereo unspecified) | 1 | 5 | -5 | -11 | -64 | . | -13 | -18
CC1CCCN(S(=O)(=O)c2ccc(S(=O)(=O)N3CCC4(CC3)OCCO4)cc2)C1 (stereo unspecified) | 4 | 4 | -9 | -10 | -7 | i | . | -6
CCOC(=O)c1c(CSC(=N)N)n(-c2ccccc2)c2cc(Br)c(OC(C)=O)cc12 | 4 | -3 | -9 | 59 | 17 | i | . | -24
O=C(O)/C(=C\c1cn(-c2ccccc2)nc1-c1cccnc1)NC(=O)c1ccccc1 | -5 | 0 | -5 | -8 | 4 | i | -12 | -13
C[C@H](CO)N1C[C@H](C)[C@@H](CN(C)C(=O)c2ccc3c(c2)OCO3)Oc2cc(/C=C/c3ccccc3)ccc2S1(=O)=O | -7 | -6 | . | . | -9&-22[16.7 µM] | . | -34&-17&-13 | .
CNS(=O)(=O)c1ccc(NC(=O)c2cnn3c(C(F)F)cc(-c4ccccc4)nc23)cc1 | -3 | -6 | 3 | -6 | -4 | i | -13 | -11
COc1ccc(NC(=O)c2ccc(N3CCCC3=O)cc2)cc1Cl | 6 | -13 | . | 14 | -25 | . | -10 | .
CCc1c(Nc2ccccc2Cl)nc(N)[nH]c1=O | 2 | -3 | . | . | -21 | . | -7 | .
O=C1CCc2cc(NS(=O)(=O)c3cc(F)ccc3F)cc3c2N1CC3 | 4 | 3 | . | -9 | 0 | i | -8 | .
Clc1cc(Cl)c(Cl)c(Cl)c1Cl | 0 | 7 | . | 3 | . | . | -1 | .
O=C(O)c1cccnc1Br | 0 | 3 | -4 | 2 | -40 | i | . | ?
O=C(O)CC(C(=O)O)C(c1ccccc1)c1ccccc1 (stereo unspecified) | 5 | 2 | . | . | -12 | . | -11 | .
CCc1cccc(C)c1NC(=O)CSc1nc2ccccc2n1CC(=O)N(C)C | -3 | 2 | -2 | 4 | . | . | -11 | -2
COc1ccc(-c2[nH]ncc2CN2CCC(N3CCSCC3)CC2)c(F)c1 | 0 | 2 | -3 | 4 | -10 | i | -5 | 3
O=C(N/N=C/c1cccc(Cl)c1)c1c(O)c2c([nH]c1=O)CCCC2 | 4 | 4 | -6 | 30 | -55 | i | . | 15
O=C1C=C(Nc2cccc(Cl)c2)CC(c2ccco2)C1 (stereo unspecified) | -1 | 0 | 11 | 6 | . | i | -18 | 2
Cc1nc2nc(C)c(CCC(=O)N3CCOCC3)c(C)n2n1 | 7 | 1 | 2 | -1 | -10 | i | . | -6
CCCN(CC(=O)Nc1cc(Cl)cc(Cl)c1)CC(=O)Nc1ccc(F)c(F)c1F | -2 | -1 | 5 | . | . | i | -7 | 13
Cc1ccc([N+](=O)[O-])cc1NC(=O)c1ccc(C(C)(C)C)cc1 | 0 | 0 | -8 | 7 | . | i | -15 | -11
COc1ccc(/C=C/c2nnc(NC(=O)CC(C)C)s2)cc1 | -3 | -1 | -3 | 12 | 5 | i | -5 | -2
O=c1cc(-c2ccccc2)nc(SCCOc2ccccc2Cl)[nH]1 | 1 | 2 | 6 | -2 | 2 | i | . | -10
O=C1CSC(=Nc2ccccc2[N+](=O)[O-])N1 | -2 | 3 | 2 | . | -23 | i | . | -6
CC(=O)c1nn(-c2ccc(Cl)cc2)c(=O)[nH]c1=O | 3 | -7 | -6 | -5 | -4 | i | -17 | -8
CC1(C)NC(=O)N(CCCOc2ccc(Br)cc2Cl)C1=O | 4 | 1 | -16 | -18 | -66 | i | . | 6
Cc1ccc(NC(=O)c2cccc(C(F)(F)F)c2)cc1NC(=O)c1[nH]cnc1C(N)=O | 10 | 9 | . | -22 | 16 | . | -13 | .
O=C(NCCc1csc(-c2cccnc2)n1)c1ccccc1 | 2 | 4 | 6 | -15 | -32 | i | -20 | 3
CCc1ccc(NC(=O)c2cc(Br)ccc2Br)cc1 | . | . | 0 | 11 | 6 | i | . | -7
CCCC1(CCC)C(=O)NC(=NCCc2ccc(OC)c(OC)c2)NC1=O | -7 | -1 | -10 | 4 | -5 | i | -3 | 6
Cc1ccc(S(=O)(=O)c2nc(-c3ccc(F)cc3)oc2SCC(=O)NCC2CCCO2)cc1 (stereo unspecified) | -9 | -2 | 5 | -11 | -3 | i | 7 | 7
CC1c2ccsc2CCN1S(=O)(=O)c1ccccc1 (stereo unspecified) | 0 | -2 | 7 | 4 | -9 | i | . | -3
Cc1cc(O)c2c(C)c(CC(=O)N3CCN(C(=O)C4COc5ccccc5O4)CC3)c(=O)oc2c1 (stereo unspecified) | . | . | -4 | -4 | -8 | i | -4 | 5
S=C(Nc1ccccc1)N1CCn2c(nc3ccccc32)C1 | 1 | 4 | -19 | -15 | 4 | i | 11 | -6
Cc1nc(SCc2nc3ccc(Br)cc3[nH]2)c2oc3ccccc3c2n1 | -3 | -6 | . | . | 22 | . | -18 | .
CCNC(=S)NNC(=O)CSc1nc2ccccc2[nH]1 | 2 | 4 | -4 | 16 | -2 | i | -31 | 4
S=c1[nH]nc(C2CC2)n1Cc1ccco1 | 2 | 0 | -9 | 1 | . | i | -8 | -10
Cc1ccc(Nc2nc3c([nH]2)c(=O)[nH]c(=O)n3C)cc1 | 3 | -7 | -2 | -11 | . | i | -6 | -10
CC(=O)N1c2ccc(S(=O)(=O)NCCC(=O)N3CCC(C)CC3)cc2CC1C (stereo unspecified) | 2 | 0 | 0 | -17 | -6 | i | -26 | 3
CCOC(=O)c1cccc(NS(=O)(=O)Cc2ccccc2)c1 | 0 | 4 | -7 | 0 | 20 | i | . | -5
COc1ccc(C(=O)NC2CCN(CC(=O)N3CCCCC3)CC2)cc1 | -1 | 2 | 10 | 2 | 7 | i | -15 | 2
O=C(C[C@H]1C/C=C\C[C@@H](Cc2ccc(F)cc2)C(=O)OC[C@H]2CCCN2C1=O)NCCO | -2 | 5 | . | . | 1 | . | 1 | .
COc1cccc(NC(=O)CSc2nc(C)cs2)c1 | 1 | 4 | -9 | 27 | . | i | 10 | -3
CCOc1ccccc1NC(=S)Nc1ncccc1C | -1 | -6 | 2 | -4 | -51 | i | -27 | -7
Cc1cc(C)c(C)c(S(=O)(=O)NC2CCCCC2)c1C | -3 | -4 | -11 | -12 | 9 | i | -18 | -8
COc1ccc(C(=O)CSC2=NS(=O)(=O)c3cc(Cl)ccc3N2)cc1 | 5 | 2 | . | 4 | -6 | i | 19 | .
Cc1c(C(=O)NCc2ccc3c(c2)OCO3)cccc1[N+](=O)[O-] | -4 | 0 | -6 | -10 | 10 | i | . | -2
CCCCN(CCCC)CCNC(=O)c1cn(C)c2ccc(S(=O)(=O)N3CCCC3)cc2c1=O | 0 | -2 | . | 5 | -2 | i | -12 | .
O=C(NCCn1ccc2ccccc21)c1ccc(S(=O)(=O)N2CCCCC2)cc1 | 5 | -2 | -5 | 5 | . | i | 6 | 2
Cc1ccc(C)c(CN2C(=O)COc3ccccc32)c1 | 1 | -1 | -2 | 3 | -1 | i | -9 | -1
CCOC(=O)C1=CN(Cc2cccc(I)c2)S(=O)(=O)N(C)C1C (stereo unspecified) | -2 | -3 | . | . | -5 | . | -12 | .
CC(NC(=O)CCc1nnc(CCCc2ccccc2)o1)c1ccccc1 (stereo unspecified) | 2 | 1 | 1 | 1 | -28 | i | . | -2
O=C(NCc1ccccc1C(F)(F)F)C1CCC(=O)N(C2CC2)C1 (stereo unspecified) | -1 | 2 | -12 | -1 | -6 | i | 11 | -12
Cc1ccc(S(=O)(=O)NC(=O)NC(=O)N(C)S(=O)(=O)c2ccc(C)cc2)cc1 | 4 | 7 | 4 | -10 | 33 | i | -11 | 7
O=C(CSC1=NCCS1)Nc1ccnc2ccccc12 | -11 | -21 | 7 | 9 | . | i | -15 | -1
O=C(Nc1cc(C(F)(F)F)ccc1Cl)C(Sc1nnc(-c2cccs2)o1)c1ccccc1 (stereo unspecified) | 1 | 1 | -6 | -8 | 2 | i | . | 1
CCC(=O)NCCCCCCNC(=O)CC | -6 | 3 | -6 | -8 | . | i | -16 | 2
CCOC(=O)C(C)Sc1nnc(CNC(=O)c2ccc(OC)cc2)n1C1CCCCC1 (stereo unspecified) | 2 | 1 | -5 | -15 | -34 | i | -10 | 3
Cn1nc(C(F)(F)F)c(CO)c1Sc1ccc(F)cc1 | -5 | -4 | -4 | -6 | 12 | i | . | -7
CC1CCCC(C)N1C(=O)c1cccc2c1-c1ccccc1/C2=N/O (stereo unspecified) | -11 | -7 | -3 | -6 | . | . | -2 | -1
Cc1cc(C)cc(NC(=O)N2CCN(S(C)(=O)=O)CC2)c1 | 1 | 3 | -6 | 6 | 1 | i | . | 0
Cc1ccc(SCc2ccc(C(=O)Nc3ccccc3C(=O)NC(C)C)cc2)cc1 | -2 | -1 | -10 | . | . | i | -16 | 0

Continued (2 carried over from the part before).
SMILES | MT1-MMP act inh | MT1-MMP act inh RFP | eIF4H inh | CSC inhib | Env fusion inh | Rce1 inhib | UUG fidelity | PABP FP inh | others
Cc1cc(C)cc(NC(=O)N2CCN(S(C)(=O)=O)CC2)c1 | 1 | 3 | -6 | 6 | 1 | i | . | 0
Cc1ccc(SCc2ccc(C(=O)Nc3ccccc3C(=O)NC(C)C)cc2)cc1 | -2 | -1 | -10 | . | . | i | -16 | 0
Cc1ccc(CNc2ncnc3cc(Cl)ccc23)cc1 | -7 | -19 | 62 | 8 | 21 | i | -14 | 1 | eIF4H inh retest=1;PABP FP inh retest=-4
CCCc1nc2oc3c(=O)[nH]cnc3c2c2c1COC(C)(C)C2 | 1 | 3 | 0 | 14 | -5 | i | . | 9
O=C(NC1CC1)C(=O)c1c(-c2ccccc2)[nH]c2ccccc12 | 7 | 2 | 0 | -21 | -26 | i | -18 | 4
O=C(CN1CCN(S(=O)(=O)c2ccccc2)CC1)NC(=O)NCc1ccccc1 | 1 | 5 | 2 | . | . | i | -9 | 5
CC(C)N1CCN(Cc2ccc(-c3ccccc3Cl)o2)CC1CCO (stereo unspecified) | 3 | 1 | -5 | 33 | 3 | i | -4 | -4
CC1CCCC(C)N1C(=O)CN1c2cccc3cccc(c23)S1(=O)=O (stereo unspecified) | 4 | 1 | . | -14 | -5 | . | -1 | .
O=C1C(=O)N(c2ccccc2)c2ccccc21 | -3 | 8 | -1 | . | 6 | i | -10 | -8
CC1CCN(C(=O)CNC(=O)c2ccc(Cl)cc2Cl)CC1 | -5 | 0 | 3 | 15 | -18 | i | -13 | 13
COc1ccc(CSC2=C(C#N)C(=O)NC3(CCCCC3)S2)cc1 | -1 | 0 | . | . | 11 | . | -21 | .
COC(=O)N/N=C/c1cc([N+](=O)[O-])cc(Br)c1O | -1 | -3 | -6 | 16 | . | i | . | -1
CCN(C(=O)C1=COCCO1)c1nc2c(C)cccc2s1 | -1 | 1 | . | -10 | -13 | i | -19 | .
Cn1c(=NC(=O)CS(=O)(=O)c2ccccc2)sc2ccccc21 | 4 | 1 | . | 0 | -21 | i | -15 | .
CCOC(=O)C1=C(C)NC2=C(C(=O)CCC2)C1c1ccsc1 (stereo unspecified) | . | . | 5 | . | . | i | . | 3
C=CC1=CCN(S(=O)(=O)C(C)(C)C)[C@H]1CCO | -1 | 2 | . | . | -9 | . | -11 | .
Cc1nnc(N/N=C/c2ccc(-c3ccc(Br)cc3)o2)n1N | 4 | 4 | 8 | -3 | -9 | i | . | -10

Compounds were not picked by outcome; any-hit rate near 2.9%.
